Screening results deposited in PubChem BioAssay by Johns Hopkins Ion Channel Center.
KCNQ2 pot: potentiators of rat KCNQ2 potassium channel | Potassium voltage-gated channel subfamily KQT member 2 (Rattus norvegicus), O88943 | CHO-K1 KCNQ2, FluxOR thallium flux fluorescence; active compounds read high | B-score at 10 µM | hit rate 0.54% among 310,000;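 active = fluorescence ratio B-score at least 3 SD of library B-scores, with initial fluorescence B-score within 3 SD, cut at about 5.3 in these data; same plate scores as AID 2156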;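 also: B-score of peak minus minimum over baseline fluorescence ratio after K+ and Tl+ stimulus; positive B-score means potentiation of KCNQ2 with more thallium influx and brighter signal; only the inactives scoring about 0 or higher are listed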
Target sequence (O88943 whole entry, looked up): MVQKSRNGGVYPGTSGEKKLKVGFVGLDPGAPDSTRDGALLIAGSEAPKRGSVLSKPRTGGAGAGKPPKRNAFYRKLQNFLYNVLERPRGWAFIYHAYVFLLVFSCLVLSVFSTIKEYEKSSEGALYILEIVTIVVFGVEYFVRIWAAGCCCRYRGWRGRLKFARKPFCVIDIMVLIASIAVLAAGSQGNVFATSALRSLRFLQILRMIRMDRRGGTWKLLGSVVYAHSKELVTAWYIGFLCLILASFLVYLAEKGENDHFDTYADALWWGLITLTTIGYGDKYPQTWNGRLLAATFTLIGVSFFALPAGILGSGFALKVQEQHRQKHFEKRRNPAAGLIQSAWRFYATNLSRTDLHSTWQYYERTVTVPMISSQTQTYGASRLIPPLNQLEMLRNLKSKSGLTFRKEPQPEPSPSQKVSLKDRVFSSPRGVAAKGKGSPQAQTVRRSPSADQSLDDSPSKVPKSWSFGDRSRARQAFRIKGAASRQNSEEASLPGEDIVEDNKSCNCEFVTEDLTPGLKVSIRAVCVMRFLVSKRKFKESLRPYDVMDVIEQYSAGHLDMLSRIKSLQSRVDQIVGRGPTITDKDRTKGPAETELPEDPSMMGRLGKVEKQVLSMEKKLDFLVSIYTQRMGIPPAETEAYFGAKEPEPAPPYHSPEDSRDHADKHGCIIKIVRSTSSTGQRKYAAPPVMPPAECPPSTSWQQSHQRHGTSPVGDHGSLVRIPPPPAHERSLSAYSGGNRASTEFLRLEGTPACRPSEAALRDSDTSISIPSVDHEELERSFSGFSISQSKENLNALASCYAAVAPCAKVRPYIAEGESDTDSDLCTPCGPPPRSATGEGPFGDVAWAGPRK
KCNQ2 pot baseline: second read-out of KCNQ2 pot, no call of its own (marks repeat the call); B-score; compound at 10 µM; measured here: initial fluorescence intensity artifact check;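 brightness before thallium and not channel activity; 0 = typical well and far values either way flag optical interference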
* marks the source's active call; other numbers are inactive results.

SMILES | KCNQ2 pot | KCNQ2 pot baseline
CCCN(C(=O)CSc1nc2cc(S(=O)(=O)N(CC)CC)ccc2o1)C1CCS(=O)(=O)C1 (centres undefined) | 0.02 | -0.53
O=C(CN1CCCC1)Nc1ccc(-c2nc3cc(NC(=O)CN4CCCC4)ccc3o2)cc1 | 0.1 | -0.02
Nc1[nH]n(-c2ccccc2)c(=O)c1N=Nc1ccccc1[N+](=O)[O-] | 1.5 | -1.2
CN1CCCN=C1/C=C/c1cccs1 | 0.4 | 0.04
CCC(C)NC(=O)CCc1c(C)nc2c(c(C)nn2-c2ccccc2)c1C (centres undefined) | 1.9 | -0.45
COc1ccc(S(=O)(=O)Nc2c(C)c(C)cc3c2ncn3C)cc1 | 0.01 | -0.03
Cc1ccc(SCC(=O)Nc2nccs2)cc1 | 0.11 | 0.13
CCOc1ccc(S(=O)(=O)N/N=C(\C)C2CCCCC2)cc1 | 0.05 | 0.92
O=C(Oc1cc(-c2ccccc2)no1)c1cccc(C(F)(F)F)c1 | 0.15 | 0.79
COCCCNC(=O)c1cc(C(=O)Cc2ccccc2)c[nH]1 | 0.56 | -0.99
Cc1sc2ncnc(Nc3ccc(O)cc3)c2c1C | 0.25 | 0.12
Cc1ccc(OCc2cc(C(=O)N(C)Cc3cnn(-c4ccccc4C)c3)no2)cn1 | 2.5 | 0.66
CCC(/C=N/NC(=O)CCCCC(=O)N/N=C/C(CC)CC)CC | 0.52 | 0.26
C/C(CC(=O)Nc1cccc2c1CCCC2)=N\NC(=O)COc1ccccc1 | 0.03 | 0.44
COc1cccc(/C=C/C(=O)c2ccc[nH]2)c1 | 1.1 | -0.5
CCOc1ccccc1OCCn1nnc2ccccc21 | 1.1 | -0.02
O=C(Cn1cncn1)NCCC(c1ccccc1)c1ccccc1 | 0.88 | 0.33
Nc1nonc1C(=O)N/N=C/c1ccc(Br)o1 | 0.41 | -0.02
Cc1ccc(CC(=O)NC2CCN(Cc3ccccc3)CC2)cc1 | 0.02 | -0.98
Cc1cc(Nc2nn(C)c(N)c2C#N)ccc1F | 0.67 | -1.8
O=C(CN(C(=O)c1csnn1)c1ccc(F)c(Cl)c1)NCc1ccccc1 | 0.22 | 0.51
Cc1c(C(=O)N2CCCCCC2)nnn1-c1nonc1N | 1.2 | -1.6
CCN1C(=O)N(CC)C(O)(c2ccccc2)C1(O)c1ccccc1 (centres undefined) | 0.04 | -0.01
CCOc1c2ccoc2nc2c(OC)c(OC)ccc12 | 1.6 | -0.13
CC(=O)c1c(C)nc(-c2ccccc2)nc1N | 0.05 | 0.2
CC(OC(=O)c1ccncc1)C(=O)Nc1cccc(Cl)c1 (centres undefined) | 0.79 | -0.48
COc1cc(OC)cc(N2CCN(S(=O)(=O)c3ccc(-n4cnnn4)cc3)CC2)c1 | 0.09 | 1.7
Cc1ccc(NS(=O)(=O)c2c(C)[nH]c(C)c2C(=O)N2CCCCC2)c(Br)c1 | 0.84 | -0.23
O=C(O)COc1ccccc1/C=N/NC(=O)c1cc(-c2ccc(Cl)cc2)nc2ccccc12 | 0.67 | 0.52
CC(OC(=O)c1cccc(Cl)c1)C(=O)NC1CCCCC1C (centres undefined) | 0.21 | 0.46
COc1ccc(-c2c(C(F)(F)F)nn(C)c2NC(=O)CSCC(=O)O)cc1 | 2.1 | -1.1
CCN1/C(=C2\C(=O)N(C)C(=S)N2C)C=Cc2cc(C)ccc21 | 2.9 | -1
CCN1CCN(C(=O)c2cn(CC)c3ccc(S(=O)(=O)N(C)C)cc3c2=O)CC1 | 0.05 | -0.91
O=C(CNS(=O)(=O)c1ccc(F)cc1)N1CCOCC1 | 0.07 | -1
O=C(c1ccc(N2CCN(C(=O)c3ccccc3Br)CC2)cc1)c1cccc(F)c1 | 0.22 | 1.1
O=C(C[n+]1cccc(Br)c1)c1ccccc1 | 0.5 | -1
COc1ccc(CNC(=O)c2cccnc2Sc2ccc(Cl)cc2)cc1 | 2 | -1.3
CCOc1ccc(Cl)cc1S(=O)(=O)n1nnc2ccccc21 | 0.01 | -0.14
COC(=O)c1ccc(COc2ccccc2/C=N/NC(N)=O)o1 | 0.02 | -0.02
O=C(CN1CCCCC1)NCC1(c2ccccc2)CCCC1 | 0.38 | -0.91
CC1(C)CC(=O)c2cc(C(=O)NNc3ccccc3)c(=O)n(-c3ccccc3)c2C1 | 0.12 | -2.8
O=C(c1ccccc1[N+](=O)[O-])n1cnc2ccccc21 | 0.14 | 0.9
Cc1ccc(C2=NOC(C)(c3nnc(-c4ccncc4)o3)C2)cc1 (centres undefined) | 0.88 | 0.07
CC(C)(C)NC(=O)C(c1ccsc1)N(CCc1ccccc1)C(=O)Cn1nnc2ccccc21 (centres undefined) | 1 | 1
O=C(CSc1nnc(Nc2ccccc2)s1)Nc1cccc(S(=O)(=O)N2CCCCC2)c1 | 0.56 | -0.74
N#CCC(=O)c1sccc1-n1cccc1 | 0.06 | -1.5
CSc1ccc(N=Nc2c(C)[nH]n(C)c2=O)cc1 | 1.8 | -1.6
O=C(NC1CCCCC1)c1cc(-c2ccc(Cl)cc2)on1 | 1.6 | 0.19

Quoted at random: four compounds from above.
SMILES | KCNQ2 pot | KCNQ2 pot baseline
O=C(c1ccc(N2CCN(C(=O)c3ccccc3Br)CC2)cc1)c1cccc(F)c1 | 0.22 | 1.1
Cc1ccc(C2=NOC(C)(c3nnc(-c4ccncc4)o3)C2)cc1 (centres undefined) | 0.88 | 0.07
O=C(c1ccccc1[N+](=O)[O-])n1cnc2ccccc21 | 0.14 | 0.9
Cc1sc2ncnc(Nc3ccc(O)cc3)c2c1C | 0.25 | 0.12

Other structures follow.
SMILES | KCNQ2 pot | KCNQ2 pot baseline
CC(C)[C@H](NC(=O)Nc1ccc(S(N)(=O)=O)cc1)C(=O)O | 0.38 | -0.03
CCN1CCN(S(=O)(=O)c2ccc(OC)c(NC(=O)c3ccccc3)c2)CC1 | 0.03 | -1.8
O=C(CN1C(=O)/C(=C\c2cccs2)SC1=S)Nc1cccc(C(=O)O)c1 | 1.7 | -0.15
CN1CCCN(C(=O)CC(c2ccccc2)c2ccccc2)CC1 | 0.31 | -1.3
CCn1ccnc1CN1CCC(n2nccc2NC(=O)c2ccccc2OC)CC1 | 0.48 | 1.8
O=C(COC(=O)c1ccc2ccccc2n1)Nc1ncc(C(F)(F)F)cc1Cl | 0.38 | -0.72
CC1CCN(C(=O)c2[nH]cnc2C(=O)N[C@@H](Cc2ccccc2)C(=O)OC(C)(C)C)CC1 | 0.01 | 0.73
Cn1c(=N)n(CC(O)c2ccccc2)c2ccccc21 (centres undefined) | 0.38 | -0.83
Cc1ccc(NC(=O)CN2C(=O)c3ccccc3C2=O)c(C)c1 | 1.7 | -1.5
COCCCn1c(Cc2csc(Nc3ccc(F)cc3)n2)nnc1SCC(N)=O | 0.01 | 1.1
CN1CCN(c2ncc3c(n2)CC(c2ccccc2F)CC3=O)CC1 (centres undefined) | 0.28 | -0.79
CC(=O)N1c2ccc(S(=O)(=O)NCC3CCC(C(=O)Nc4cc(C)ccn4)CC3)cc2CC1C (centres undefined) | 0.08 | 0.37

An excerpt of these results, with values under each structure:
Every second line gives: KCNQ2 pot	KCNQ2 pot baseline
CN1CCCN(C(=O)CC(c2ccccc2)c2ccccc2)CC1
→ 0.31	-1.3
CCn1ccnc1CN1CCC(n2nccc2NC(=O)c2ccccc2OC)CC1
→ 0.48	1.8
O=C(COC(=O)c1ccc2ccccc2n1)Nc1ncc(C(F)(F)F)cc1Cl
→ 0.38	-0.72
CC1CCN(C(=O)c2[nH]cnc2C(=O)N[C@@H](Cc2ccccc2)C(=O)OC(C)(C)C)CC1
→ 0.01	0.73

Remaining list, next part.
SMILES | KCNQ2 pot | KCNQ2 pot baseline
COc1ccccc1C(=O)N1CCN(c2ccccn2)CC1 | 0.01 | -0.59
CCOc1ccc(/C=C\c2nc(O)c([N+](=O)[O-])c(=O)[nH]2)cc1OCC | 0.56 | 1.4
CCc1ccccc1NC(=O)CSC1=C(C#N)C(c2ccc3c(c2)OCO3)C2=C(CCCC2=O)N1 (centres undefined) | 2 | -1.6
O=C(CSCc1c(F)cccc1Cl)NCc1ccco1 | 0.08 | 0.06
Cn1c(SCC(=O)NC2CC2)nnc1-c1cccc(NC(=O)c2ccccc2F)c1 | 0.13 | 0.01
CCNC(=O)CN1C(=O)NC(CCc2ccccc2)C1=O (centres undefined) | 0.45 | 0.23
COc1ccc(C(=O)NC(CC(C)C)C(=O)O)cc1OC (centres undefined) | 1.2 | -0.87
CCn1cc([N+](=O)[O-])c(C(=O)NCc2ccc3c(c2)OCO3)n1 | 0.51 | 0.35
COCCCNC(=O)c1ccc(-n2nc(C(F)(F)F)cc2-c2cccs2)cc1 | 0.15 | 0.93
Cc1cccc(C(=O)N2CCCC(N3CCN(c4ccc(F)cc4)CC3)C2)n1 (centres undefined) | 0.32 | -1.9
C=CCn1c(N)c(C(=O)NCc2cccnc2)sc1=S | 1.6 | -3.1
COC(=O)CSc1nnc(-c2sc3ccccc3c2Cl)o1 | 1.6 | -0.89
O=C(Nc1ccccc1C(=O)NCCN1CCOCC1)c1ccc(Cl)cc1Cl | 2 | -0.08
CC(=O)Cc1ccccc1OCC(=O)O | 1.2 | -0.76
COc1cccc(C(C)NC(=O)Nc2ccccc2Cl)c1 (centres undefined) | 2.4 | -0.59
O=C(NCc1ccc2c(c1)OCO2)c1ccc2c(c1)N(Cc1c(F)cccc1Cl)C(=O)CS2 | 8.7* | 0.67*
CC(C)(C)C(=O)Nc1nnc(SCC(=O)NCc2ccco2)s1 | 0.54 | 3.1
CCc1c(C(=O)NC2CCCc3ccccc32)[nH]c(C)c1C(C)=O (centres undefined) | 0.1 | -1.1
CCN(c1ccccc1)S(=O)(=O)c1ccc(OC)c(NC(=O)CN(C)C)c1 | 0.56 | 0.79
COc1ccc(N2CCN(S(=O)(=O)c3c(C(=O)N4CCOCC4)c(C)n(C)c3C)CC2)cc1 | 0.93 | 0.32
CCOP(=O)(OCC)C(C)(C)NC(=O)Nc1ccc(Cl)c(Cl)c1 | 0.06 | -0.94
C=CCNC(=O)NC(=O)COC(=O)/C(C#N)=C/c1ccc(OC)cc1 | 1.4 | 0.04
Cc1ccccc1Cn1cc(/C=N/n2cnnc2)c2ccccc21 | 1.6 | 0.37
Nn1cnnc1N/N=C/c1ccccc1C(F)(F)F | 0.99 | 0.24
COc1cc(C(=O)Nc2nccs2)cc(OC)c1OC | 1.8 | 0.58
COc1ccc(CNC(=O)N2CCN(c3ccc(F)cc3)CC2)cc1Cl | 0.06 | 0.88
CCn1cc(S(=O)(=O)N2CCN(Cc3cccc(Cl)c3)CC2)cn1 | 1.2 | 0.01
CCn1c(=O)c2c3c(sc2n(C)c1=O)CCC3 | 0.27 | 0.2
COc1cccc(C(c2sc3ncnn3c2O)N2CC(C)OC(C)C2)c1 (centres undefined) | 0.79 | -2.1
CC1(C(=O)OCC(=O)Nc2ccc(C(N)=O)cc2)CC1(Cl)Cl (centres undefined) | 1.3 | 0.32
COc1ncnc2c1sc1nc(-c3ccccc3)c3c(c12)CCCC3 | 0.04 | 2.8
O=C(CSc1nc2ccccc2c(=O)n1Cc1ccco1)NCc1ccco1 | 1.1 | -1.4
COc1ccc2[nH]c(C(=O)N(C)c3ccc(F)cc3F)cc2c1 | 0.59 | 0.24
S=c1[nH]nc(-c2ccc(Cl)cc2)n1-c1ccc(Cl)cc1 | 0.49 | -0.66
CN(C)S(=O)(=O)NCCNc1ccc(C(F)(F)F)cc1[N+](=O)[O-] | 1.5 | -2.9
CC(/C=C\c1ccccc1)=C/C(=O)O | 1.2 | -2.1
O=C(NC1CCCN(CCc2ccccc2)C1)c1c(F)cccc1F (centres undefined) | 1.6 | -1.2
COc1cc(C(C)=O)ccc1OCc1cc(C(=O)N(C)CCC2CCCCO2)no1 (centres undefined) | 0.67 | -1.6
Cc1ccc(C)c(NC(=S)N2CCC(NC(=O)C3CCCCC3)CC2)c1 | 2 | -0.64
COC(=O)C1=C(C)N(Cc2ccc(C)cc2)C(=O)C1 | 1.3 | -0.31
COc1ccc(CCN2CN(S(=O)(=O)c3ccc(OC)cc3)c3nc4ccccc4nc32)cc1 | 0.34 | -1.3
Cc1cc(OC(=O)c2cc([N+](=O)[O-])ccc2Cl)c([N+](=O)[O-])c(=O)[nH]1 | 1.3 | -0.02
CN(c1ccccc1)S(=O)(=O)c1cccc(C(=O)NCCCN2CCCC2=O)c1 | 1 | 0.51
CCOC(=O)c1c(S(=O)(=O)NCC(=O)Nc2cccc(C)n2)c(C)n(C)c1C | 0.08 | 0.01
CC(=O)NS(=O)(=O)c1ccc(NC(=O)c2oc3c(Cl)cccc3c2C)cc1 | 0.63 | 0.57
CC1Cc2nc(SCC(=O)Nc3nccs3)n(C)c(=O)c2S1 (centres undefined) | 0.51 | 0.86
COc1ccc(Cl)cc1NC(=O)CCS(=O)(=O)c1cc2c(cc1C)NC(=O)CO2 | 0.16 | 0.03
Cc1ccc(NC(=O)CCS(=O)(=O)c2ccc3c(c2)NC(=O)C(C)S3)cc1Cl (centres undefined) | 0.82 | 1.4
COc1cccc(CN(C)CC(=O)NNC(=O)c2ccc(Cl)cc2)c1 | 0.95 | -1.7
CCC1CCCCN1Cc1ccc(OC)c(C)c1 (centres undefined) | 0.12 | 0.22
COC(=O)C1(C)NC(c2cccs2)C2C(=O)N(c3ccccc3F)C(=O)C21 (centres undefined) | 1 | 0.03

In a second layout: results already given.
KCNQ2 pot	KCNQ2 pot baseline	smiles
0.12	0.22	CCC1CCCCN1Cc1ccc(OC)c(C)c1 (centres undefined)
0.67	-1.6	COc1cc(C(C)=O)ccc1OCc1cc(C(=O)N(C)CCC2CCCCO2)no1 (centres undefined)
0.16	0.03	COc1ccc(Cl)cc1NC(=O)CCS(=O)(=O)c1cc2c(cc1C)NC(=O)CO2
1.3	-0.02	Cc1cc(OC(=O)c2cc([N+](=O)[O-])ccc2Cl)c([N+](=O)[O-])c(=O)[nH]1
1.3	-0.31	COC(=O)C1=C(C)N(Cc2ccc(C)cc2)C(=O)C1

These rows are one share of the data; the hit share may differ from the screen's.
